# N370S GC mod: inhibits or activates N370S mutant glucocerebrosidase | P04062 | N370S GC spleen homogenate, 4MU-glucoside fluorescence | Potency, µM (highest dose often 59.4 µM), inactives show top-dose activity change, negative = inhibition, most hits filed as inhibitors | actives 0.092% (n = 330,000);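 also: 0% = full enzyme activity and -100% = no enzyme basal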
# TDP1 inh: TDP1 (human) enzyme inhibition | Q9NUW8 | recombinant TDP1, AlphaScreen DNA substrate cleavage | Potency, µM (titrated, usually from 130 µM), for inactives: top-dose activity change, negative = inhibition, usual class: inhibitors | actives 0.28% (n = 350,000); also: nearly all actives have a fitted effect of over 40% in size
# Target sequence (Q9NUW8 whole entry, looked up): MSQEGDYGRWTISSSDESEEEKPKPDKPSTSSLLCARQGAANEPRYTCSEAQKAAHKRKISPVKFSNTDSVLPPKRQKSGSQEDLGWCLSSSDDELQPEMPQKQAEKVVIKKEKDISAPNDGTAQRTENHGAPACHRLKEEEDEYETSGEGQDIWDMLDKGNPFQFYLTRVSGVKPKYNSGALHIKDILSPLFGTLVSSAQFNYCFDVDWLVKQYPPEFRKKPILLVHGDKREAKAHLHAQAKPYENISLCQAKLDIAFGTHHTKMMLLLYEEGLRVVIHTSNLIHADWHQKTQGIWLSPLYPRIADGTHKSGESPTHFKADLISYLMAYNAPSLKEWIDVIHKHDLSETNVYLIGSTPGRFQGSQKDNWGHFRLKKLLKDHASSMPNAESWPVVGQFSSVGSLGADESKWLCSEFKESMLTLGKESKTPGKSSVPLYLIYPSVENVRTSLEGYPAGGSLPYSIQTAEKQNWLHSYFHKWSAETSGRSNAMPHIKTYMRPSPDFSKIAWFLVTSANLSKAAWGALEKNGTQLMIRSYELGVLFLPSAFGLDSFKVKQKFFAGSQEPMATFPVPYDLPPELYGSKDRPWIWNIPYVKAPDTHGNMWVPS
#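 Steps: enzyme plus compound, 15 min RT; add biotin/phosphotyrosine-FITC oligonucleotide (15 nM final), react 5 min; add donor/acceptor beads (10 ug/ml final), 10 min; read AlphaScreen. Tdp1 at 1 nM final.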
# Numbers without * were called inactive; ? = inconclusive; . = no result given; [ ] = dose if it differs, or a comment. Calls follow the shape of the dose curve; as a rule, active = well fitted curve in the direction sought with a large enough effect; inconclusive = small, poorly fitted or top-dose-only effect, or another doubt; inactive = no such curve, though single readings can be large; an effect the other way counts as inactive or inconclusive. Unless noted, % is scaled to controls: 0 for no effect and ±100 for the full control effect; potency is read from the fitted curve at half-maximal effect. This is a subset, and most or all hits are left out here.
# Sequence of screens – N370S GC mod | TDP1 inh
CCOC(=O)C1CCN(S(=O)(=O)c2cc(F)ccc2OC)CC1
  1% | 0%
Cc1noc(C)c1NC(=O)NCCN1CCN(Cc2ccccc2)CC1
  3% | 4%
N=C(N)N1CCc2ccccc21
  -1% | .
Cc1ccc2sc(NC(=O)CSc3nc(C)cc(C)c3C#N)nc2c1
  12% | .
Cc1cc(NC(=O)C2CCN(S(=O)(=O)Cc3ccccc3)CC2)ccc1-n1cnnn1
  9% | 0%
O=C(NNC1CC(=O)N(c2cccc(Cl)c2)C1=O)c1cccs1 (stereo unspecified)
  -3% | 6%
COc1cccc(/C=N/NC(=O)CNC(=O)c2cccs2)c1O
  -17% | 6%
CCN(CC)CCCNc1nnc(C)c(=O)[nH]1
  -3% | 0%
O=C1C=C(Nc2ccc(Cl)cc2)C(=O)N1c1ccc(Cl)cc1
  10% | 6%
COc1ccc(C(=O)N2CC3(C)C4CCC3(C)C2(C#N)C4)cc1OC (stereo unspecified)
  -19% | 0%
CCc1ccc(CNC(=O)c2ccc(CS(=O)c3ccc(Br)cc3)o2)cc1 (stereo unspecified)
  . | 3%
CC(C)(C)NC(=O)C(c1ccc(F)cc1)N(Cc1ccccc1Cl)C(=O)c1ccn[nH]1 (stereo unspecified)
  -16% | 3%
Cc1ccccc1Nc1nc2ccccc2n1C(C)C
  -2% | -5%
O=C(CCCn1c(=O)c2ccccc2n(Cc2ccccc2)c1=O)NCc1ccco1
  11% | -2%
Cc1cc(C)n(CC(C)NCc2c(C(=O)N3CCOCC3)nc3c(C)cccn23)n1 (stereo unspecified)
  -4% | .

# Sequence of screens – N370S GC mod | TDP1 inh
CCOC(=O)c1cccc(NC(=O)c2ccc3c(c2)C(=O)N(CC2CCCO2)C3=O)c1 (stereo unspecified)
  0% | 3%
CN(CCCNC(=O)C1CCCN(S(=O)(=O)c2cnc[nH]2)C1)c1ccccc1 (stereo unspecified)
  1% | -1%
Cc1occc1C(=O)N1CCC2(CCCN(Cc3ccc(F)c(F)c3)C2)C1 (stereo unspecified)
  -19% | 6%
C/C(=N/NS(=O)(=O)c1ccc(C)cc1)c1ccc2c(c1)OCO2
  6% | 4%[56.1 µM]
N#Cc1c(NCCCO)nc(-c2ccco2)c2c1CCCC2
  ? | -2%
O=C1c2ccccc2C(=O)N1c1ccc(S(=O)(=O)N2CCCCC2)cc1
  -5% | .
O=C(O)/C=C/c1cn(-c2ccccc2)nc1-c1ccccc1
  13% | .
CCSc1nc(-c2ccc(OC)cc2)ccc1C#N
  10% | .
O=C(CN1CCN(c2cccc(C(F)(F)F)c2)CC1)NCc1ccccc1
  -3% | 1%
O=C(N1CCCC1)C12CCC3CC(CC(C3)C1)C2
  4% | 4%
CS(=O)(=O)c1ccc2nc(NC(=O)c3ccc(N4CCCC4=O)cc3)sc2c1
  1% | 0%
CN(c1ccc(OCC(=O)Nc2ccc3[nH]c(=O)[nH]c3c2)cc1)S(=O)(=O)c1ccc(Cl)cc1
  -6% | 8%
CCN(CC)C(=O)c1sc(NC(=O)c2ccco2)c(C#N)c1C
  -7% | -3%
Cc1cccc(C)c1NC(=O)Cn1c(=O)n(CCCC(=O)NCc2ccco2)c(=O)c2sccc21
  14% | -5%
CC(Oc1ccc2c(-c3ccccc3)cc(=O)oc2c1)C(=O)NCC(O)c1ccccc1 (stereo unspecified)
  1% | .

# Sequence of screens – N370S GC mod | TDP1 inh
CCOc1ccc(C(=S)NC2CCCCC2)cc1OC
  8% | 4%
Cn1nnnc1SCCNCc1ccc(F)cc1
  . | 6%
Cc1ccc(S(=O)(=O)N(CC(=O)N2CCOCC2)CC(=O)N2CCOCC2)cc1
  11% | -2%
COc1ccccc1NC(=O)CC1C(=O)NCCN1C(=O)Nc1ccc(Cl)c(Cl)c1 (stereo unspecified)
  -2% | 2%
CCCCN(CC(=O)NC1CCCC1)C(=O)C(=O)Nc1ccc2c(c1)OCCO2
  -3% | 8%
CN1CCCC1=Nc1c2c(nc3ccccc13)N(C)CC2
  0% | 3%
O=C(CSc1nnc(NC(=O)c2ccco2)s1)NC1CCCC1
  1% | 4%
CC(/C=N/NC(=O)Cc1cccs1)=C\c1ccccc1
  -1% | -2%
CCCNC(=O)C(Cc1cccc(OC)c1)NC(=O)c1ccc(C#N)cc1 (stereo unspecified)
  . | 2%
Cc1cc(NC(=O)CN2C(=O)CC(c3ccco3)Sc3ccccc32)no1 (stereo unspecified)
  6% | 3%
COc1cc(NC(=O)CSc2ncnc3scc(-c4ccccc4)c23)c(C(=O)O)cc1OC
  -2% | 2%
Cc1c(Cl)cccc1NC(=O)CC(Cc1ccccc1)C(=O)O (stereo unspecified)
  -10% | .
CCCNC(=O)CN1C(=O)NC(CC)(c2ccc(F)cc2)C1=O (stereo unspecified)
  -6% | -3%
C#C[C@@]1(O)CCC2C3CCc4cc(O)ccc4C3CC[C@@]21C (stereo partly specified)
  -10% | 12%[56.1 µM]
COc1ccc(CCNC2=NCCS2)cc1
  -7% | 4%

# Sequence of screens – N370S GC mod | TDP1 inh
COc1ccc(C)cc1NC(=O)NC(C)c1ccc2c(c1)OCO2 (stereo unspecified)
  5% | -3%
O=C(Nc1cccc2ccccc12)/C(=C/c1ccc([N+](=O)[O-])cc1)NC(=O)c1ccccc1
  0% | 12%
Cn1c(SCC(=O)NC(C)(C)C)nnc1-c1ccc(C(C)(C)C)cc1
  1% | 4%
COc1ccc(C2C(C(=O)c3ccc(C)o3)=C(O)C(=O)N2CC2CCCO2)cc1OC (stereo unspecified)
  -6% | 2%
N=c1ccn(Cc2ccc([N+](=O)[O-])cc2)cc1
  -2% | 3%
CC(C)c1nc(=S)c2ccccc2[nH]1
  5% | 7%
CCOC(=O)C1=C(COC(=O)c2ccc([N+](=O)[O-])o2)NC(=O)NC1C (stereo unspecified)
  . | 0%
O=C(Nc1ccc2c(c1)C(=O)NC2=O)c1ccc2ncsc2c1
  -5% | -14%
O=C(Nc1ccnn1C1CCN(C(=O)c2ccccc2C(F)(F)F)CC1)C1CC1
  -10% | 2%
CCOC(=O)C(CSCC(=O)c1ccc(Cl)cc1)NC(=O)OC(C)(C)C (stereo unspecified)
  -6% | 2%
O=C(Nc1cccnc1)c1cc(-c2cccs2)on1
  2% | .
CN(C)CCOCCOc1ccc(Cl)c2ccccc12
  -8% | -8%
O=C(OCCCc1cc2ccccc2c(=O)o1)c1ccco1
  . | -1%
C=CCn1c(CCc2ccc(OC(C)C)cc2)n[nH]c1=S
  -3% | 3%
CN(Cc1nc(-c2ccncc2)no1)S(=O)(=O)c1ccc(Br)cc1
  -15% | 3%

# Sequence of screens – N370S GC mod | TDP1 inh
COc1ccc(NC(=O)c2cccnc2Sc2ccccc2)c(OC)c1
  5% | 1%
Cc1ccccc1NC(=O)c1ccco1
  -4% | .
CCOc1cc(C)c(Cl)cc1S(=O)(=O)NCc1ccco1
  ? | 9%
COC(=O)c1sccc1N/N=C(\C)c1ccc(F)c(Cl)c1
  2% | 3%
N/C(=N\OC(=O)Cc1ccc(Cl)cc1)c1cccnc1
  -7% | 0%
O=C(O)/C=C/c1cnc2ccccc2c1
  0% | 5%
c1ccc2c3c(c(CN4CCCCC4)cc2c1)COC3
  -15% | 0%
CCCC(=O)Nc1c(-c2ccccc2)c(=O)c(C)nn1-c1ccc(Cl)cc1
  3% | 3%
COc1ccccc1N1CCN(Cc2ccc(OC)c(OC)c2OC)CC1
  -3% | 2%
CCc1cc2c(=O)n(Cc3ccco3)c(SCC(=O)NC3CCS(=O)(=O)C3)nc2s1 (stereo unspecified)
  5% | 6%
CCn1c(SCC(=O)Nc2cc(OC)ccc2OC)nnc1C1CCCCC1
  9% | 2%
O=S(=O)(c1c(Cl)sc(Cl)c1Br)N1CCCC1
  2% | ?
COc1ccccc1N1CC(C(=O)NC2CCCCCC2)CC1=O (stereo unspecified)
  . | 1%
O=C(NCC1COCCO1)c1ccc2nc(Cc3cccc(Cl)c3)oc2c1 (stereo unspecified)
  -19% | 0%
O=C(NC(Cc1c[nH]c2ccccc12)C(=O)O)/C(=C/c1ccco1)NC(=O)c1ccccc1 (stereo unspecified)
  -4% | -5%

# Sequence of screens – N370S GC mod | TDP1 inh
COC(=O)C1=C(C(=O)OC)[C@@H]2N(C)c3ccc(OC)cc3[C@@]23C[C@@H](C(=O)OC)N(C(=O)c2ccco2)C3=N1
  5%[12.8 µM] | -13%[21 µM]
Cc1ccc(CNC(=O)C(OC(=O)c2ccco2)C(C)C)cc1 (stereo unspecified)
  -11% | 0%
CCCCN1C(=O)N(c2ccccc2Cl)C(C)(O)CC1(C)C (stereo unspecified)
  -10% | .
CCOc1ccc(-n2c(SCC(N)=O)nnc2-c2ccco2)cc1
  2% | .
Cc1ccc2oc(C(=O)N(Cc3ccccc3)C3CCS(=O)(=O)C3)c(C)c2c1 (stereo unspecified)
  0% | 2%
O=c1oc2ccccc2c(Nc2ccccc2O)c1[N+](=O)[O-]
  -1% | 9%
O=C(OCC1OC(n2ccc(=O)[nH]c2=O)C(O)C1OC(=O)c1ccccc1)c1ccccc1 (stereo unspecified)
  3% | -2%
COc1cc2c(cc1OC)-c1cc(OCc3ccccc3Cl)nc(=O)n1CC2
  8% | 6%
CC(=O)Nc1ccc(NC(=O)C2CC(=O)N(C(C)C)C2)cc1 (stereo unspecified)
  -7% | .
CCOc1ccc(NC(=S)N2CCN(S(C)(=O)=O)CC2)cc1
  2% | 2%
Cc1nc2ccccc2c2c1C(=O)N(c1ccc(C(=O)O)cc1)C2=O
  -5% | 0%
Cc1ccc(N2CC(NS(=O)(=O)c3cccnc3)CC2=O)cc1 (stereo unspecified)
  1% | .
O=C(Cc1ccsc1)NCc1ccccc1F
  3% | 0%
O=C(CCc1nc(-c2ccccc2Cl)no1)Nc1cccnc1
  -5% | -14%
CCCCOP(=O)(c1ccc(N(C)C)cc1)C(O)c1cc(OC)ccc1OC (stereo unspecified)
  -11% | .

# Record cards, as listed above. Order of values: N370S GC mod	TDP1 inh
# Entry for `O=C(OCCCc1cc2ccccc2c(=O)o1)c1ccco1` → .	-1%
# Entry for `CC(/C=N/NC(=O)Cc1cccs1)=C\c1ccccc1` → -1%	-2%

# Additional results follow.
# Sequence of screens – N370S GC mod | TDP1 inh
CCOc1ccc(NC(=O)CSc2nc3cccnc3n2CCOC)cc1
  8% | 4%
CCCCN(C(=O)c1cc(Cl)nc2ccccc12)c1c(N)n(CCCC)c(=O)[nH]c1=O
  -13% | -16%
O=c1oc2cc(O)c(Cl)cc2c2ccccc12
  4% | -4%
CN(Cc1ccc(F)cc1)C(=O)c1ccc(NS(=O)(=O)c2ccccc2)cc1
  -9% | 0%
CC(=O)Nc1sc(C)c(C)c1CN1CCN(S(=O)(=O)c2ccccc2)CC1
  8% | 8%
OCc1cnc(SCc2ccccc2)n1Cc1ccccc1
  8% | -4%
Cc1cccc(C(=O)OCc2cc(=O)n3nc(C4CCCCC4)sc3n2)c1
  . | -1%
O=C(CSc1nc(-c2ccc(F)cc2)cs1)N1CCOCC1
  2% | 2%
CCCn1c(SCC(=O)N2c3ccccc3CC2C)n[nH]c1=O (stereo unspecified)
  1% | 0%
NC(=O)c1ccc(NC(=O)COC(=O)c2cc([N+](=O)[O-])ccc2N2CCOCC2)cc1
  -5% | .
Cc1ccccc1-n1c(SCC(=O)Nc2ccc3c(c2)OCO3)nnc1-c1ccccn1
  7% | 3%
O=C(/C=C/c1ccccc1[N+](=O)[O-])c1ccc(F)cc1
  13% | 0%
CC(=O)N(c1ccccc1)c1nc(C)cc(C)c1C#N
  4% | 4%[56.1 µM]
COCCn1c(N)c(C(=S)NC(=O)c2cccs2)c(=O)[nH]c1=O
  23% | -9%
COC(=O)c1ccccc1NC(=O)C1CC(c2ccccc2O)=NO1 (stereo unspecified)
  9% | 8%
COc1ccc(N=Cc2c(O)n(-c3ccc(OC)cc3)c(=O)c3ccccc23)cc1
  -8% | -1%

# Of the compounds above, these contain a thiophene ring, fused or not:
# Sequence of screens – N370S GC mod | TDP1 inh
O=C(NNC1CC(=O)N(c2cccc(Cl)c2)C1=O)c1cccs1 (stereo unspecified)
  -3% | 6%
COc1cccc(/C=N/NC(=O)CNC(=O)c2cccs2)c1O
  -17% | 6%
CCN(CC)C(=O)c1sc(NC(=O)c2ccco2)c(C#N)c1C
  -7% | -3%
Cc1cccc(C)c1NC(=O)Cn1c(=O)n(CCCC(=O)NCc2ccco2)c(=O)c2sccc21
  14% | -5%
CC(/C=N/NC(=O)Cc1cccs1)=C\c1ccccc1
  -1% | -2%
COc1cc(NC(=O)CSc2ncnc3scc(-c4ccccc4)c23)c(C(=O)O)cc1OC
  -2% | 2%
O=C(Nc1cccnc1)c1cc(-c2cccs2)on1
  2% | .
COC(=O)c1sccc1N/N=C(\C)c1ccc(F)c(Cl)c1
  2% | 3%
CCc1cc2c(=O)n(Cc3ccco3)c(SCC(=O)NC3CCS(=O)(=O)C3)nc2s1 (stereo unspecified)
  5% | 6%
O=S(=O)(c1c(Cl)sc(Cl)c1Br)N1CCCC1
  2% | ?
O=C(Cc1ccsc1)NCc1ccccc1F
  3% | 0%
CC(=O)Nc1sc(C)c(C)c1CN1CCN(S(=O)(=O)c2ccccc2)CC1
  8% | 8%
COCCn1c(N)c(C(=S)NC(=O)c2cccs2)c(=O)[nH]c1=O
  23% | -9%
